Source: PubChem BioAssay (Southern Research Institute)
Mtb H37Rv: Confirmatory growth inhibition assay against Mycobacterium tuberculosis H37Rv, potency (AID 1949). most inactive calls were filed without a number and no value below 0 was filed. inhibition, % at 10 µg/mL, or IC50 in µg/mL where a hit was titrated. hit rate 1.6% among 100,000;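 active = confirmed in a dose series; inconclusive = about 50% or more but not retested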;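 note: bacteria grown 7 days with compound before Alamar blue readout; 0% = untreated bacteria and 100% = reference antibiotic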
An asterisk follows results filed as active; i = inactive; ? = inconclusive.

smiles	Mtb H37Rv
Cc1ccc(NC(=O)CSc2nnc(CNC(=O)c3ccc(Cl)cc3Cl)n2C)cc1C	i
O=C(NCc1ccco1)C1CCC(Cn2c(=S)[nH]c3ccccc3c2=O)CC1 (stereo unspecified)	i
Cc1cc(=O)oc2cc(OC(C)C(=O)Nc3sc4c(c3C#N)CCCC4)ccc12 (stereo unspecified)	?
COCCN1C2=C(C(=O)CC(C)(C)C2)C(c2cc(Cl)c(O)c(Cl)c2)C2=C1CC(C)(C)CC2=O	i
COC(=O)c1ccc(NC(=O)C(Cl)Cl)cc1	i
O=C(c1ccco1)N1CCN(C(=S)Nc2ccc(F)cc2F)CC1	i
CC(=O)Nc1ccc2c(C)cc(=O)[nH]c2c1	i
COc1ccccc1/C=C/c1nc2ccccc2n1C(C)C	11.2%
COc1ccc(Cc2nnc(NC(=O)CCCc3ccccc3)s2)cc1	i
Cc1ccc(NC(=O)C2=C(c3ccccc3)NC(=S)NC2c2ccc(C)c([N+](=O)[O-])c2)cc1 (stereo unspecified)	i
CC(=O)Nc1ccc(Nc2nc(C(F)(F)F)nc(C)c2C#N)cc1	i
Cc1ccc(N(Cc2ccccc2C)S(C)(=O)=O)cc1	i

Fetched by structure from above:
smiles	Mtb H37Rv
Cc1ccc(NC(=O)C2=C(c3ccccc3)NC(=S)NC2c2ccc(C)c([N+](=O)[O-])c2)cc1 (stereo unspecified)	i
COc1ccccc1/C=C/c1nc2ccccc2n1C(C)C	11.2%
COc1ccc(Cc2nnc(NC(=O)CCCc3ccccc3)s2)cc1	i
CC(=O)Nc1ccc(Nc2nc(C(F)(F)F)nc(C)c2C#N)cc1	i
COC(=O)c1ccc(NC(=O)C(Cl)Cl)cc1	i

(continued)
smiles	Mtb H37Rv
COc1ccccc1-n1c(SCC(=O)N2CCCCC2)nc2ccccc2c1=O	i
CN(Cc1cnn(C)c1)S(=O)(=O)c1cccc([N+](=O)[O-])c1	i
COc1cc([N+](=O)[O-])ccc1NC(=S)NCc1cccnc1	i
Cc1ccc(-c2cn3c4ccccc4n(CCN4CCCCC4)c3n2)cc1	i
CC(=O)Oc1ccc2c(=O)c(N3C(=O)c4ccccc4C3=O)c(C)oc2c1C	i
CC(C)OCC(O)CN1CCN(c2cccc(Cl)c2)CC1 (stereo unspecified)	2.0%
O=C(Nc1nc2ccccc2[nH]1)c1ccc(Br)cc1	14.5µg/mL*
Cc1c(NC(=S)NC(=O)c2ccccc2F)cccc1C(=O)O	i
COC(=O)N1CCCc2cc(C)ccc21	i
Cc1ccc(-n2nnnc2SCc2ccccc2F)cc1	i
CCOC(=O)C1CCN(C(=O)C2CCN(Cc3ccc(OC)cc3)CC2)CC1	i
Cc1nn(S(=O)(=O)N2CCCCC2)c(C)c1Br	i

smiles	Mtb H37Rv
O=C(CN1C(=O)c2cccc3cccc1c23)Nc1ccc(Br)cc1F	20.7%
COc1ccc(C)cc1NC(=S)N1CCN(S(=O)(=O)c2ccc(Cl)cc2)CC1	i
COc1ccc(C(C)C)cc1S(=O)(=O)Nc1ccc(Br)cc1	i
Cc1cccc(C(=O)NC(C)C)c1[N+](=O)[O-]	i
CC(=O)c1ccccc1OCC(O)Cn1ccnc1 (stereo unspecified)	4.1%
CCOC(=O)N1CCN(C(=O)c2cc3c(=O)n4ccccc4nc3s2)CC1	0.2%
CN(CC(=O)NCCc1ccccc1)S(=O)(=O)c1ccccc1	i
CCCOc1ccc(N2C(=O)CC(N3CCN(C4CCCCC4)CC3)C2=O)cc1 (stereo unspecified)	i
CCCCOc1c(Br)cc(C2NC(=O)NC(C)=C2C(=O)OC)cc1OC (stereo unspecified)	4.6%
O=C(O)CCC(=O)Nc1ccc(C(=O)NCc2ccccc2)cc1	i
CCOc1cc(C(=O)Oc2cc(=O)oc3ccccc23)cc(OCC)c1OCC	i
CCN1CCN(S(=O)(=O)c2ccc(Oc3ccccc3Cl)cc2)CC1	0.0%

smiles	Mtb H37Rv
CCOC(=O)C1=CN(C)C=C(C(=O)OCC)C1c1cc(Br)c(O)c(OCC)c1	i
CCCC(=O)Oc1ccc2c(=O)c(-c3ccccc3OC)coc2c1	i
Cn1c(NCc2cccs2)nc2ccccc21	1.7%
CCCOc1cccc(C(=O)Nc2ccc(Cl)cc2C(=O)O)c1	i
COc1ccc(S(=O)(=O)N(CC(=O)N2CCC(C)CC2)c2ccc(C)cc2)cc1Br	i
CC(C)C(=O)Nc1ncc(Cc2ccc(Cl)cc2Cl)s1	i
C=CCOc1ccc(CNc2ncn[nH]2)cc1OC	i
CSc1nnc(-c2cc(Br)ccc2NC(C)=O)c(=O)[nH]1	i
Cc1ccc(S(=O)(=O)NC2CCCC(C(=O)O)C2)cc1 (stereo unspecified)	i
C=CCOc1ccc(CNCc2cccnc2)cc1OCC	i
Cn1c(SCC(=O)Nc2cc(Cl)ccc2Cl)nnc1-c1ccccc1Cl	i
Cc1ccc(NCCC(=O)c2cccs2)cc1Cl	?

4 of these compounds in another layout:
O=C(O)CCC(=O)Nc1ccc(C(=O)NCc2ccccc2)cc1
  Mtb H37Rv: i
Cc1ccc(-c2cn3c4ccccc4n(CCN4CCCCC4)c3n2)cc1
  Mtb H37Rv: i
COc1ccccc1-n1c(SCC(=O)N2CCCCC2)nc2ccccc2c1=O
  Mtb H37Rv: i
Cc1ccc(NC(=O)CSc2nnc(CNC(=O)c3ccc(Cl)cc3Cl)n2C)cc1C
  Mtb H37Rv: i

Next section:
smiles	Mtb H37Rv
COc1ccc(CCCC(=O)Nc2ccc(Cl)c(Cl)c2)c(C)c1	8.81µg/mL*
NC(=O)NC(c1ccccc1)c1ccccc1Br (stereo unspecified)	1.9%
Cc1cccc(NC(=O)CSc2nc3nc(C)cc(C)c3c(=O)[nH]2)c1	10.8%
O=C(c1ccccc1)c1ccccc1C(=O)N1CCc2ccccc2C1	i
COC(=O)Cc1cc(=O)oc2c(C)c(O)ccc12	i
COC(=O)c1cc(OC)c(OC)cc1NC(=O)CSc1nc(C)cc(C(F)(F)F)c1C#N	i
Cc1ccccc1NS(=O)(=O)c1ccc(CC(C)C)cc1	i
O=C(COc1ccc(Br)cc1Cl)Nc1cc(Cl)c(Cl)cc1Cl	i
CCOC(=O)c1cc2n(c1N(C(C)=O)C(C)=O)-c1ccccc1C2=O	i
O=C(CSc1nc2ccccc2o1)Nc1cc(C(=O)O)cc(C(=O)O)c1	i
CCC(CC)C(=O)Nc1cccc(C(=O)N2CCCC(C)C2)c1 (stereo unspecified)	i
CC(C)c1ccc(OCc2nnc(SCC(=O)NCc3ccccc3)o2)cc1	i

smiles	Mtb H37Rv
CCC(Sc1nnc(N)s1)C(=O)Nc1ccc(Br)cc1 (stereo unspecified)	i
Cc1ccc(C(=O)COC(=O)C(C(C)C)N2C(=O)C3C4CCC(C4)C3C2=O)cc1C (stereo unspecified)	i
CS(=O)(=O)N1CCN(C(=O)c2cc(-c3ccncc3)nc3ccc(Br)cc23)CC1	i
O=C(NC(c1ccccc1)C1CCCC1)C(Cc1ccccc1)N1C(=O)c2ccccc2C1=O (stereo unspecified)	i
CCn1c(CC(=O)Nc2ccc(Cl)c(Cl)c2)nnc1SCC(=O)Nc1cccc(C(=O)OC(C)C)c1	i
COc1ccccc1NC(=O)CSc1nc2ccc(I)cc2c(=O)[nH]1	i
COc1ccc(C(=O)N2CCN(C(=O)N3CCCCC3)CC2)cc1OC	i
CCOC(=O)c1c(C)n(CCCOC(C)C)c2ccc(O)cc12	i
COC(=O)N1CCN(S(=O)(=O)c2ccc(C)cc2)CC1	i
Cc1ccc(NC(=O)C(C)c2ccccc2)cc1CN1C(=O)c2ccccc2C1=O (stereo unspecified)	i
CCC(C)NC(=O)c1cc(-c2ccc(OC)cc2)nc2ccccc12 (stereo unspecified)	i
CC(C)Cc1nc2sc3c(c2c(=O)o1)CCCCC3	5.69µg/mL*

smiles	Mtb H37Rv
CCOc1ccccc1/C=C(/C#N)S(=O)(=O)c1ccc(C)cc1	i
COC(=O)c1cc(C)sc1NC(=S)NCCn1cc(Cl)cn1	i
CCOC(=O)CC(=O)CSc1nc(-c2cccnc2)ccc1C#N	i
CCOc1ccccc1N1CCN(C(=O)C2CCN(Cc3ccc(F)cc3)CC2)CC1	i
COc1cc(C2NC(=O)NC(C)=C2C(=O)Nc2ccc(F)cc2)ccc1O (stereo unspecified)	0.7%
O=C(c1ccccc1)c1ccc(OCCCn2cnc3ccccc3c2=O)cc1	44.9%
c1ccc(OCCn2c3ccccc3n3c(SCc4nc5ccccc5[nH]4)nnc23)cc1	i
Cc1ccc(-n2c(=O)oc3ccc(Cl)cc3c2=O)cc1Cl	1.08µg/mL*
Cc1ccccc1N1C(=O)c2cccc3cc(Br)cc(c23)C1=O	i
O=c1c2ccccc2ncn1CCCOc1ccccc1-c1ccccc1	1.6%
COc1cc(C(=O)NC(=S)Nc2ccc(-c3nc4ccccc4s3)cc2)cc(OC)c1OC	i
CCCCc1ccc(NC(=O)C(C)NS(=O)(=O)c2ccc(C)cc2)cc1 (stereo unspecified)	42.8%

Molecule | Mtb H37Rv
N#C/C(=C\c1cccs1)c1nc(C2CC2)cs1 | 2.7%
Cc1ccccc1CN(CC(=O)Nc1ccc2c(c1)OCCO2)S(=O)(=O)c1ccc(Cl)cc1 | 2.2%
O=C1CCCC2=C1C(c1ccc(Cl)cc1Cl)Nc1ccccc1N2 (stereo unspecified) | i
Nc1c(C(=O)Nc2ccc(F)cc2F)sc2nc3c(c(C(F)(F)F)c12)CCCCC3 | 0.7%
CC(C(=O)Nc1ccc(I)cc1)N1C(=O)C2C3C=CC(C4CC34)C2C1=O (stereo unspecified) | ?
Cc1cc(OCC(=O)Oc2ccccc2[N+](=O)[O-])ccc1Br | i
O=C(NCCc1ccc(Cl)cc1)Nc1ccccc1[N+](=O)[O-] | i
COC(=O)Nc1sc(C(=O)OC)c(C)c1C(=O)OC | i
CCOC(=O)C1=CN(Cc2ccc(F)cc2)C=C(C(=O)OCC)C1c1cc(OC)c(OC)c(OC)c1 | 2.6%
O=C(c1cc(-c2ccc(Cl)c(Cl)c2)nc2ccccc12)N1CCOCC1 | i
Cc1nnc(NC(=O)c2cccc(NC(=O)c3ccccc3)c2)s1 | i
CC1(C)Cc2c(c(N3CCOCC3)nc3sc4c(=O)n(-c5ccc(Br)cc5)cnc4c23)CO1 | i
O=C(CCc1ccccc1)Nc1nc(SCc2ccc(F)cc2)ns1 | 8.4%
CCOc1ccc(S(=O)(=O)n2nc(C)cc2C)cc1C | 3.4%
COCCNC(=S)N1CCCCCC1 | i

Shown with each value named: 3 of the compounds above.
SMILES: Cc1cc(OCC(=O)Oc2ccccc2[N+](=O)[O-])ccc1Br
  Mtb H37Rv = i

SMILES: CCOc1ccc(S(=O)(=O)n2nc(C)cc2C)cc1C
  Mtb H37Rv = 3.4%

SMILES: CC(C(=O)Nc1ccc(I)cc1)N1C(=O)C2C3C=CC(C4CC34)C2C1=O (stereo unspecified)
  Mtb H37Rv = ?

(next part)
Molecule | Mtb H37Rv
CCc1ccc(NC(=O)CN(c2cc(Cl)ccc2OC)S(C)(=O)=O)cc1 | i
Cc1cc(C(=O)NCCCc2ccccc2)no1 | i
Cc1ccc(-n2c(C)nnc2SCC(=O)NCc2ccccc2)cc1C | i
O=C(NC12CC3CC(CC(C3)C1)C2)N1CCC(O)CC1 | i
CCOc1c(Cl)cc(C(=O)Nc2ccc(OC)cc2)cc1Cl | i
Cc1ccc(N(CC(=O)NCCC2=CCCCC2)S(C)(=O)=O)cc1Cl | i
O=C(O)C(Oc1ccc2c(-c3ccccc3)cc(=O)oc2c1)c1ccccc1 (stereo unspecified) | i
CCN(CC)C(=O)CSc1nnnn1-c1c(C)cccc1C | i
CC1=C(C(=O)OCc2ccccc2)C(c2ccc(OC(=O)c3ccccc3)cc2)NC(=O)N1 (stereo unspecified) | i
Cc1ccc(Cl)cc1NC(=O)COc1ccc(C(C)C)c(C)c1 | i
N#Cc1c(N)sc2c1-c1ccccc1CC2 | 23.5%
CC1(C(=O)N2CCN(c3ccccc3)CC2)CC1(Cl)Cl (stereo unspecified) | i
COC(=O)Cc1ccc(NC(=S)NCCc2ccc(OC)cc2)cc1 | i
COc1ccccc1N1C(=O)CC(c2cn(C)c3ccccc23)C1=O (stereo unspecified) | i
COc1ccc(C)cc1NS(=O)(=O)c1ccc(NS(=O)(=O)c2ccc(Br)cc2)cc1 | i

Molecule | Mtb H37Rv
COC(=O)Nc1ccc(C)cc1[N+](=O)[O-] | i
COc1ccc(Cl)cc1NC(=O)CSc1nc2sc(C)cc2c(=O)n1Cc1ccco1 | i
O=C(Nc1cnc2ccccc2c1)N1CCOCC1 | i
Cc1cccc(OC(C)C(=O)N(C)c2ccccc2)c1C (stereo unspecified) | 0.5%
COc1ccccc1NS(=O)(=O)c1cc(Cl)ccc1OC | 2.0%
CN=C1NC(=O)CC(C(=O)Nc2ccc([N+](=O)[O-])cc2)S1 (stereo unspecified) | 7.2%
Cc1cccc(-c2cc(C(=O)N3CCCc4ccccc43)c3ccccc3n2)c1 | 4.0%
O=C1CC(c2ccc(F)cc2)Sc2ccccc2N1 (stereo unspecified) | i
COC(=O)C1CCN(C(=O)Cc2coc3cc(C)cc(C)c23)CC1 | 3.0%
Cc1ccc(Cl)cc1N1CCN(S(=O)(=O)N2CCCCC2)CC1 | 9.5%
NNc1nnc2c(n1)[nH]c1ccccc12 | i
COc1ccc(OC)c(N(CC(=O)NCc2ccccc2Cl)S(C)(=O)=O)c1 | i
C=CCNc1nc(-c2cccc(NC(C)=O)c2)cs1 | i
CS(=O)(=O)N1CCN(C(=O)Nc2cccc(Cl)c2Cl)CC1 | i
CCOc1ccc(C(=O)Nc2cccc(C)c2C)cc1Cl | 2.7%
O=C(Nc1ccc([N+](=O)[O-])cc1)NC1CCCc2ccccc21 (stereo unspecified) | 6.1%
CCOc1ccccc1N1CCN(C(=S)Nc2ccc(C(C)CC)cc2)CC1 (stereo unspecified) | i
CC1=C(C(=O)Nc2ccccc2Cl)C(c2ccc(N(C)C)cc2)NC(=O)N1 (stereo unspecified) | i

Some of the compounds tested; the hit share may differ from the screen's.
